# NPYLR7 ag = activates Aedes aegypti NPYLR7 receptor | HEK293T NPYLR7/Galpha15, GCaMP6s calcium fluorescence | activation, % at 10 µM | actives 0.15% (n = 270,000) | AID 1259423; in the data active = activation above about 40%;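 note: 0% = vehicle and 100% = reference agonist at the receptor; some compounds past the cut are filed as inactive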
# NPYLR7 ag max-min = second read-out of NPYLR7 ag, no call of its own (marks repeat the call); activation, %; measured here: Max-Min RFU normalised activation; some inactives read as strong as hits;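 span of the calcium signal over five minutes; 0% = vehicle and 100% = native peptide agonist; compound fluorescence can raise it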
# Starred values were filed as active, the others as inactive.
# A first look:
# Fields – NPYLR7 ag	NPYLR7 ag max-min
O=S(=O)(c1ccc(Br)s1)N1CCCC1c1ccc2c(c1)OCCCO2 (configuration not stated)
  1	0
CC(C)CN1CCCN(c2nccc(-c3cnn(-c4ccccc4)c3)n2)CC1
  -4	-8
COc1ccc(F)c(F)c1CN1CCN(Cc2ncccc2C)CC1
  1	8

# Results, from the start:
# Fields – NPYLR7 ag	NPYLR7 ag max-min
O=S(=O)(c1ccc(Br)s1)N1CCCC1c1ccc2c(c1)OCCCO2 (configuration not stated)
  1	0
CC(C)CN1CCCN(c2nccc(-c3cnn(-c4ccccc4)c3)n2)CC1
  -4	-8
COc1ccc(F)c(F)c1CN1CCN(Cc2ncccc2C)CC1
  1	8
CS(=O)(=O)c1nc(S(=O)(=O)c2ccc(Cl)cc2)c(NCC2CCCO2)s1 (configuration not stated)
  9	8
NNC(=O)c1nc(-c2ccccc2)cc(-c2ccccc2)n1
  -1	-1
C=c1nc(Cc2ccc(F)cc2)sc1=C1N=C(C(C)(C)NC(C)=O)NO1
  3	1
CC(C)=CCN1Cc2ccccc2N(CC(O)Cc2ccccc2)CCC1=O (configuration not stated)
  3	4
Oc1oc(-c2ccc(Cl)cc2)nc1C=Nc1nc2ccccc2s1
  13	8
Cc1ccc2[nH]c(C(=O)N3CC[C@@H](c4ccc(F)cc4)[C@H](O)C3)cc2c1
  5	-1
Cc1ccc(C(=O)Nc2c(N)nc(SCC(=O)Nc3cccc(Cl)c3)[nH]c2=O)cc1
  -10	-5
O=C1CN(C(=O)c2csc(Nc3ccccc3)n2)CCN1
  7	2
O=C(CSc1nc(Cl)cc(N2CCCCC2)n1)NCCC(c1ccccc1)c1ccccc1
  -14	-7
O=C(NCC1CCCO1)[C@@]1(OCc2ccc(F)cc2)CC(OCc2cccc(C(F)(F)F)c2)[C@H](O)[C@H](O)C1 (some centres not stated)
  29	24
CC(C)CC(NC(=O)c1cnn2ccccc12)c1ncnn1C (configuration not stated)
  4	2
O=C(NC(c1ccccc1)C1CC1)N1CCN(S(=O)(=O)c2ccc(F)cc2)CC1 (configuration not stated)
  -1	1

# Six compounds from above, arranged by count of non-hydrogen atoms, lowest first:
# Fields – NPYLR7 ag	NPYLR7 ag max-min
CC(C)CC(NC(=O)c1cnn2ccccc12)c1ncnn1C (configuration not stated)
  4	2
Oc1oc(-c2ccc(Cl)cc2)nc1C=Nc1nc2ccccc2s1
  13	8
C=c1nc(Cc2ccc(F)cc2)sc1=C1N=C(C(C)(C)NC(C)=O)NO1
  3	1
O=C(NC(c1ccccc1)C1CC1)N1CCN(S(=O)(=O)c2ccc(F)cc2)CC1 (configuration not stated)
  -1	1
Cc1ccc(C(=O)Nc2c(N)nc(SCC(=O)Nc3cccc(Cl)c3)[nH]c2=O)cc1
  -10	-5
O=C(NCC1CCCO1)[C@@]1(OCc2ccc(F)cc2)CC(OCc2cccc(C(F)(F)F)c2)[C@H](O)[C@H](O)C1 (some centres not stated)
  29	24

# More results
# Fields – NPYLR7 ag	NPYLR7 ag max-min
CCNC(=O)N(Cc1csc(COc2ccccc2)n1)C(C)CC (configuration not stated)
  4	1
Cc1ccc(Cn2nnc3c(=O)n(CC(=O)OCc4ccccc4)cnc32)cc1
  9	11
C=C(C)Cn1c(SCCCC)nc2c1c(=O)n(C)c(=O)n2C
  5	2
O=C(c1cn2ccsc2n1)N1CCC(CO)(CCOc2ccccc2)CC1
  13	11
Cc1cc(C(=O)NN=Cc2cccnc2)c(C)o1
  -4	-6
Cc1nn(CCNC(=O)c2ccccc2C2CCNC2)c(C)c1Cl (configuration not stated)
  2	-2
O[C@H]1C[C@@H]2C[C@H](c3ccccn3)OC[C@]2(O)[C@@H]1N1CCN(c2cnccn2)CC1
  2	-4
CC(=O)CSc1ncnc2sc(C)c(C)c12
  1	-1
COC[C@H]1C[C@H]2C[C@@H](O)[C@H](N(C)Cc3ccccc3)[C@]2(O)CO1
  2	5
O=S(=O)(NCc1ccco1)c1cc(Br)ccc1Br
  -1	-5
COc1ccc2ccccc2c1CNc1nn[nH]n1
  3	-3
Cc1cc(O)c(C=Nc2ccc(F)cc2)c(=O)o1
  5	5
COc1ccc(-c2ccc(C(=O)NCc3ccc(Cl)cc3)s2)c(OC)c1OC
  3	2
Cc1onc(-c2ccccc2Cl)c1C(=O)N1CCC2(CCCO2)CC1
  1	-5
COCc1cc(N(C)C)nc(SCc2ccc(C(=O)N(C)Cc3ccccc3)o2)n1
  -4	5

# Full records from above.
# Record of `O=C(CSc1nc(Cl)cc(N2CCCCC2)n1)NCCC(c1ccccc1)c1ccccc1` = NPYLR7 ag = -14; NPYLR7 ag max-min = -7
# Record of `CC(C)CC(NC(=O)c1cnn2ccccc12)c1ncnn1C` (configuration not stated) = NPYLR7 ag = 4; NPYLR7 ag max-min = 2

# (more compounds)
# Fields – NPYLR7 ag	NPYLR7 ag max-min
COc1ccccc1N1CCN(CCN(C(=O)C2CCCCC2)c2ccccn2)CC1
  4	-18
CCOC1CCCN(C(=O)c2ccc(-c3n[nH]c(C4CC4)n3)cc2)C1 (configuration not stated)
  6	2
COc1ccccc1-c1nc(SCCN2CCCCC2)c2c(=O)n(C)c(=O)n(C)c2n1
  -9	-13
COC(=O)C1=C(C)N(C)C(C)=C(C(=O)OC)C1c1cccc(F)c1
  -7	-5
Cc1ccc(C)c(C=NNc2nc(C)cc(=O)[nH]2)c1
  3	0
Cn1ccnc1C(NC(=O)c1ccc2c(=O)n3c(nc2c1)CCC3)c1ccc(F)cc1 (configuration not stated)
  -3	-3
COC(=O)c1ccoc1CN(C)c1c(N)n(Cc2ccccc2)c(=O)[nH]c1=O
  2	7
COc1cc(Nc2nnc(C(O)c3sccc3C)s2)cc(OC)c1OC (configuration not stated)
  6	4
O=C(Nc1ccccc1)N1CCN(c2cc(-n3ccnc3)ncn2)CC1
  -15	-19
O=C(Cc1ccccc1)N1CCN=C1SCc1cccc([N+](=O)[O-])c1
  0	-3
O=C(Cn1cc(Br)c(=O)[nH]c1=O)NCCC1CCCCC1
  2	1
CCn1c(=NC(=O)c2ccccc2)sc2cc3c(cc21)OCCO3
  4	3
Cc1ccccc1-n1ncc(C(C)NC(=O)c2n[nH]c3ccccc23)c1C (configuration not stated)
  2	-4
CSc1ccc(CN(C(=O)CN2C(=O)NC(=O)C2(C)C)C2CC2)cc1
  2	-3
CCOc1ccc2nc(N3CCCN(Cc4nccn4-c4ccc(OC)cc4)CC3)nc(C)c2c1
  -8	-6
O=C1CC2(CCN(S(=O)(=O)c3ccc(-n4cccn4)cc3)CC2)CN1
  14	1
CCc1c(C(=O)O)cnn1-c1ccccc1
  3	5
CCOc1ccc(-n2ccn3c(CC)nnc3c2=O)cc1
  5	-5
CCN1CCN(c2nc(N3CCN(Cc4ccccc4)CC3)nc(N)c2[N+](=O)[O-])CC1
  4	12
CCOC(=O)c1ccc(S(=O)(=O)N2CCCC2C(=O)Nc2ccc(C)cc2)o1 (configuration not stated)
  0	0
COc1ccc2oc(=Nc3cccc(C)c3)c(C(=O)NC(C)=O)cc2c1
  1	-4
CN1C(=O)[C@H](OC(N)=O)[C@@H](C(=O)Nc2ccccc2)C12CCN(C(=O)C1CCC1)CC2
  23	20
COC(=O)c1c(C)[nH]c(C(=O)C(C#N)=C/C=C/c2ccccc2)c1C
  -7	-8
O=C1NCCN(CC2CCCCC2)C1CC(=O)N(Cc1nccs1)C1CC1 (configuration not stated)
  7	4
CC(C(=O)O)N1C(=O)CSC1c1ccccc1Cl (configuration not stated)
  -1	3
CCCCOC(=O)C1=C(C)NC(=O)NC1c1cc(Cl)cc(Cl)c1OC (configuration not stated)
  -5	-9
C=CCN1CCN(Cc2cc3n(n2)CCNC3)CC1
  5	6
COc1ccccc1Cc1nc2c(c(N3CCOCC3)n1)CN(C(=O)c1ccc(Br)cc1)CC2
  -3	4
CCn1c(SCC(=O)c2cc(C)n(Cc3ccco3)c2C)nnc1C1CC1
  0	8
COc1cccc(C(=O)NC(C(=O)N2CCCC2)C2CCN(C(=O)c3cccs3)CC2)c1 (configuration not stated)
  6	6
COc1cc(C(=O)N2CCC(c3nc(-c4cccnc4)no3)CC2)cc(OC)c1OC
  -4	-10
NS(=O)(=O)c1ccc(C(=O)O)cc1
  -4	-10
O=C(NCc1cccs1)c1cnn2c(C(F)(F)F)cc(-c3ccc(F)cc3)nc12
  -2	-5
Cc1nnsc1C(=O)Nc1ccc(C(=O)OC2CCCC2)cc1
  11	-4
CCOC(=O)C1CCCN1S(=O)(=O)NC(C)c1ccc(F)c(F)c1 (configuration not stated)
  1	0
CCOC(=O)C(c1cccc(OC)c1)C1C=CC(NC(=O)c2cccc(C#N)c2)C1 (configuration not stated)
  -3	-10
O=C(C1CCCC1)N(Cc1cccc(Cl)c1)CC1CC(c2ccccc2)=NO1 (configuration not stated)
  20	19
Cc1nc(CC(=O)N(C)Cc2nnc(-c3ccccc3)o2)cs1
  -3	2
Clc1ccc2c(NCc3ccco3)nc(-c3cccs3)nc2c1
  1	11
CC(=O)Oc1cccc(N2C(=O)C3C4C=CC(C4)C3C2=O)c1 (configuration not stated)
  -2	-9
CCc1nc2ccc(C(=O)NCCNC(C)=O)cn2c1N(CC)CCOC
  -7	-7
Cc1nonc1C1CCCN1Cc1nc(-c2cccs2)oc1C (configuration not stated)
  1	-1
O=C(Cn1cnc(-c2ccccc2)cc1=O)NCCc1ccccc1
  9	4
Cc1ccc(C(NC(=O)CCc2c(C)nn(C)c2C)c2ccncc2)cc1 (configuration not stated)
  11	5
Fc1ccc(F)c(CN2CCCn3cccc3C2c2cccc(Oc3ccccc3)c2)c1 (configuration not stated)
  2	4

# Some values from the entries so far.
# For NPYLR7 ag max-min, COc1ccc(-c2ccc(C(=O)NCc3ccc(Cl)cc3)s2)c(OC)c1OC is listed with 2
# For NPYLR7 ag, COc1ccccc1N1CCN(CCN(C(=O)C2CCCCC2)c2ccccn2)CC1 is listed with 4
# For NPYLR7 ag, O=S(=O)(NCc1ccco1)c1cc(Br)ccc1Br is listed with -1

# The list goes on.
COc1cccc(C(=O)NCCNc2cc(N(C)C)nc(C)n2)c1
  NPYLR7 ag: 0
  NPYLR7 ag max-min: 0

O=C(Cn1cnc2c(nnn2Cc2ccccc2)c1=O)N1CCCc2ccccc21
  NPYLR7 ag: 8
  NPYLR7 ag max-min: 6

O=C(O)C=Cc1cccs1
  NPYLR7 ag: 7
  NPYLR7 ag max-min: 7

COc1ccc(-c2ccc(=O)n(Cc3ccc(C(F)(F)F)cc3)n2)cc1OC
  NPYLR7 ag: 12
  NPYLR7 ag max-min: 4

O=C(O)C1CCCN1S(=O)(=O)c1cccc2nsnc12 (configuration not stated)
  NPYLR7 ag: 21
  NPYLR7 ag max-min: 19

CCc1ccc(Cl)c(CC)c1NC(=O)CCc1ccc(OC)cc1
  NPYLR7 ag: 3
  NPYLR7 ag max-min: 0

CNC(=O)CN(C(=O)C1CCC1)[C@@H]1C[C@@H]2CO[C@H](C(C)C)C[C@@H]2C1
  NPYLR7 ag: 15
  NPYLR7 ag max-min: 13

Cc1cnc(NC(=O)c2cc(S(=O)(=O)N3CCCCC3)ccc2N2CCOCC2)s1
  NPYLR7 ag: 0
  NPYLR7 ag max-min: 1

CC(=O)N1C2CCCCC2S[C@H]2CCCCC21 (some centres not stated)
  NPYLR7 ag: -2
  NPYLR7 ag max-min: -8

Cc1cccc(-n2nc3c(c2NC(=O)C24CC5CC(CC(C5)C2)C4)CS(=O)C3)c1C (configuration not stated)
  NPYLR7 ag: -3
  NPYLR7 ag max-min: -2

COc1ccc(C2=NC(=Cc3ccc(C)s3)C(=O)O2)cc1OC
  NPYLR7 ag: 6
  NPYLR7 ag max-min: 7

Cc1ccc(CN(Cc2nc3cc(C)ccc3o2)C(=O)c2cccc3ccccc23)cc1
  NPYLR7 ag: 6
  NPYLR7 ag max-min: 0

O=C(CSc1ccc(F)cc1F)Nc1ccc2c(c1)OCO2
  NPYLR7 ag: 2
  NPYLR7 ag max-min: 0

CN(Cc1nncn1C)c1ccc(C(=O)N2CCC(Cn3cccn3)CC2)cn1
  NPYLR7 ag: -6
  NPYLR7 ag max-min: -15

O=C(CN(CCN1CCOCC1)C(=O)Nc1ccc(Br)cc1)N(Cc1ccc2c(c1)OCO2)Cc1ccco1
  NPYLR7 ag: -8
  NPYLR7 ag max-min: -12

O=C1CCC(C(=O)N2CCCO2)CN1Cc1cccc(C(F)(F)F)c1 (configuration not stated)
  NPYLR7 ag: 9
  NPYLR7 ag max-min: 4

O=C(c1ccc(-c2cccnc2)nc1)N1CCCN(c2ncccn2)CC1
  NPYLR7 ag: 6
  NPYLR7 ag max-min: 2

COc1ccc(CCc2nnc(CCC(=O)NCc3cnc4ccccn34)o2)cc1
  NPYLR7 ag: 3
  NPYLR7 ag max-min: 2

CCc1nc2ccc(C(=O)NC3CCN(C)CC3)cn2c1N(C)Cc1ccc(Cl)cc1
  NPYLR7 ag: -6
  NPYLR7 ag max-min: -11

Cc1cc(C)nc(CCNC(=O)c2cccc(CC3CCNCC3)c2)n1
  NPYLR7 ag: 7
  NPYLR7 ag max-min: 0

CC1CCc2sc(-c3nnc(SCC(=O)Nc4ccnn4C4CCCC4)o3)cc2C1 (configuration not stated)
  NPYLR7 ag: 1
  NPYLR7 ag max-min: -1

C#CCn1c(=NC(=O)c2ccccc2S(C)(=O)=O)sc2cccc(F)c21
  NPYLR7 ag: 3
  NPYLR7 ag max-min: -1

CCc1nc2n(n1)C(=O)C(C(c1ccc(C(C)C)cc1)N1CCC(C(=O)OC)CC1)S2 (configuration not stated)
  NPYLR7 ag: -1
  NPYLR7 ag max-min: 4

Clc1cccc2c1CN(C1=NCCN1)C2
  NPYLR7 ag: -7
  NPYLR7 ag max-min: -9

O=c1c2nnn(Cc3ccc(F)cc3)c2ncn1Cc1ccc(Br)cc1
  NPYLR7 ag: 9
  NPYLR7 ag max-min: 12

# Screening results as filed in PubChem BioAssay.

# This is a subset (hit frequency here may not be typical).
